GLA inh pH 4.5: blocks human alpha-galactosidase A at pH 4.5; purified enzyme, 4-MU-alpha-Gal fluorescence, pH 4.5; 230,000 tested, under 10 active; P06280; AID 1467; activity change, negative = inhibition, % at 105 µM; inconclusive = small, poorly fitted or top-dose-only inhibition, or a rising curve; inactive = flat fitted curve, though single readings scatter; no compound was filed as active;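 further: 0% = full activity with enzyme and -100% = basal without enzyme; dose as in the result columns while the protocol names 77 µM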
Target sequence (P06280 whole entry, looked up): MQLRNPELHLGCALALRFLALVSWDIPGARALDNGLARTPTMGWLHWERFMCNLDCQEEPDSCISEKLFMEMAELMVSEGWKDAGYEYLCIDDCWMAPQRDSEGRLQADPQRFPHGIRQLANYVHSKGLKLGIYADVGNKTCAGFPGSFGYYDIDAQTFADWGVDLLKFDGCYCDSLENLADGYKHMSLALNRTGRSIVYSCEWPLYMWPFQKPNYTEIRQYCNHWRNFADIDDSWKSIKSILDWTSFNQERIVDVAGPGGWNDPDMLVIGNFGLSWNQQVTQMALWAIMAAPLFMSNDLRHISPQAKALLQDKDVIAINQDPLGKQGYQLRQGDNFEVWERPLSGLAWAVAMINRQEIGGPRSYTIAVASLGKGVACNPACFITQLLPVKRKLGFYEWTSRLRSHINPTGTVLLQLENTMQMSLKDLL
miR-21 reporter: miR-21 reporter, rising signal; HeLa miR-21 FLuc reporter, luciferase, 48 h; AID 2288; 340,000 tested, under 10 active; Potency, µM (highest dose often 38.3 µM), without a hit: at the top dose reporter change, positive = more light; active = well fitted rising curve with a large enough effect; inconclusive = small, poorly fitted or top-dose-only effect; inactive = no such curve, though single readings can be large or run the other way;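 further: % of control where 0% means no effect; miR-21 action dims this reporter so a rising signal means less miR-21 action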
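Using DMEM plus 10% FBS, HeLa miR-21-FLuc cells are incubated with test compounds (final up to about 40uM) for 48 hours; firefly luciferase signal is then imaged following reagent-mediated lysis.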
Rango complex inh: Rango-importin beta binding inhibition; Q14974; Rango CFP/YFP FRET sensor + importin beta, 45 min; Potency, µM (highest dose often 92.2 µM), inactives show top-dose inhibition of complex formation; actives 0.031% (n = 340,000); AID 540263; active = rising FRET ratio curve, often small or poorly fitted; inconclusive = mostly compound fluorescence or quenching in the first reads; inactive = flat curves in all reads;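 further: potency means the concentration at half of the fitted maximal effect; 0% = DMSO wells and 100% = buffer wells lacking importin beta; nearly all actives have a fitted effect of over 15% in size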
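Inhibition scored from the CFP 486 nm/YFP 530 nm FRET ratio 45 min after adding 0.125 microM importin beta to 50 nM Rango biosensor preincubated 5 min with compound (room temperature, PBS with DTT, Tween-20, BSA). No-importin wells as positive control.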
Rango release inh: inhibitors of RanGTP-induced Rango-importin beta complex dissociation | O95149+P62826 | Biochemical FRET Rango-importin beta, RanGTP-induced dissociation | Potency, µM (highest dose often 46.1 µM), for inactives: top-dose activity change, negative = inhibition | actives 0.071% (n = 340,000) | AID 540253; active means falling FRET ratio curve, often poorly fitted, with flat reads before Ran was added; inconclusive means other falling curves, or compound fluorescence or quenching; inactive means flat or rising ratio curve;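 further: potency means the concentration at half of the fitted maximal effect; % of control where 0% means no effect; nearly all actives have a fitted effect of over 45% in size; -100% = wells without RanGTP and RCC1; the record marks most hits as doubtful in a second field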
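Compounds sat 5 min at room temperature with 0.1 uM Rango biosensor plus 0.25 uM importin beta, then FRET pre-read. RanGTP-RCC1 (0.6 uM Ran, 2mM GTP, 0.2 uM RCC1) added for 45 min, and the CFP/YFP post-read measured blocked complex dissociation.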
Active calls of the source: *; ? = inconclusive; nt = not tested or not shown; & = joins results of further samples. The list is partial; the hit share may differ from the screen's.

SMILES	GLA inh pH 4.5	miR-21 reporter	Rango complex inh	Rango release inh
CCC(=O)N(Cc1cc(=O)[nH]c2ccccc12)c1ccc(OC)cc1	nt	-5%	-2.8%	7%
CCOc1ccc(NC(=O)NC(=O)N(C(C)C)S(C)(=O)=O)cc1	2	2%	0.1%	7%
O=C(NCc1ccc(Cl)cc1)c1ccncc1	nt	0%	-1.4%	15%
CCOC(=O)C1CCN(S(=O)(=O)c2ccc(C)c(C)c2)CC1	3	0%	-1.9%	15%
Cc1ccc2oc(C(=O)N(Cc3ccccc3)C3CCS(=O)(=O)C3)c(C)c2c1 (stereo not drawn)	nt	-7%	-1.0%	-7%
CCn1c(SCC(=O)NC2CC2)nnc1C(C)Oc1ccccc1 (stereo not drawn)	nt	1%	2.4%	1%
COc1cc(OC)cc(C(=O)Nc2cccc(NC(=O)c3ccccc3)c2)c1	nt	5%	1.5%	-5%
CC(=O)NCc1ccc(C(=O)CCl)cc1	3	5%	0.6%	5%
CCOc1ccc(NC(=O)CN(C)C(=O)C2=COCCO2)cc1OCC	nt	nt	-1.6%	-1%
CC(=O)c1cc2c(cc1NC(=O)Cn1nc(C)c(C)c(C#N)c1=O)OCO2	nt	nt	-1.1%	19%
COC(=O)C(N)CCCCN (stereo not drawn)	nt	nt	-2.1%	-4%
Cc1ccc(/C=C2\SC(=S)N(NS(=O)(=O)c3ccc(C)cc3)C2=O)cc1	nt	-1%	-0.8%	25%
CCc1ccc(-c2cc(C(=O)NCc3ccccn3)c3ccccc3n2)cc1	-1	-21%	2.8%	-12%
COc1ccc(NC(=O)Nc2ccc3c(c2)C(=O)N([C@H](C)CO)C[C@H](C)[C@@H](CN(C)S(=O)(=O)c2ccccc2)O3)cc1	nt	nt	-4.3%	0%
Cc1ccccc1Cn1cc(NC(=O)c2noc3c2CC(C(C)(C)C)CC3)cn1 (stereo not drawn)	-1	-11%	-0.3%	-12%
CC1CCN(c2nc3ccc(C(=O)N4CCN(Cc5ccc6c(c5)OCO6)CC4)cc3s2)CC1	-19	-22%	-3.8%	?
CCN(Cc1ccccc1)S(=O)(=O)c1c(C)[nH]c(C)c1C(=O)N1CCCCC1	nt	-1%	5.2%	15%
Cc1ccccc1Cn1nc(C)c(NC(=O)c2noc3c2CCc2ccccc2-3)c1C	-2	13%	-0.7%	1%
Nc1cc(Cl)nc(N/N=C/c2c(O)ccc3ccccc23)n1	-2	-12%	?	15%
CC(C)(C)OC(=O)N1CCC(c2c(C(=O)NCC3CCN(C4CCCC4)C3)cnn2-c2cccc(Cl)c2)CC1 (stereo not drawn)	nt	3%	0.3%	-5%
Clc1ccc(-c2ccnc(Oc3cc(Cl)ccc3Cl)n2)cc1	1	1%	3.4%	6%
CC(=O)c1cc(CN2CCN(C(C)C)C(CCO)C2)cs1 (stereo not drawn)	-4	-1%	-3.2%	-4%
CCCCOC(=O)CSc1nc(N)c(C#N)c(-c2ccc(OC)cc2)c1C#N	-9	-15%	0.8%	7%
O=C(CN1C(=O)NC2(CCCCCC2)C1=O)c1ccccc1	nt	-14%	-5.3%	26%
COc1ccc(NC(=O)CN2C(=O)NC(C)(c3ccc(C)cc3)C2=O)cn1 (stereo not drawn)	nt	nt	4.8%	-5%
CC1CCC(N2CCNCC2)CC1 (stereo not drawn)	-6	-4%	3.6%	33%
CSc1ccc2nnc(-c3cccc(F)c3)n2n1	7	-13%	0.0%	-16%
C=CCn1c(CNC(=O)c2ccccc2F)nnc1SCC(=O)N1CCOCC1	nt	-1%	5.4%	-7%
Cc1cc(F)ccc1NC(=O)C(C)n1c2ccccc2c2nc(=O)cc(C)n21 (stereo not drawn)	-6	-1%	-2.8%	15%
CCCCn1c(=O)c(CCC(=O)OCC(=O)Nc2cccc3ccccc23)nc2ccccc21	1	0%	-2.2%	-15%
O=C(/C=C/c1ccc([N+](=O)[O-])cc1)NCC1CCCO1 (stereo not drawn)	-24	-21%	0.4%	3%
COc1cccc(C(=O)Nn2cnnc2)c1OC	nt	1%	0.6%	1%
Cc1ccc(NC(=O)CCCc2c[nH]c3ccccc23)nc1	nt	5%	?	-1%
CC(C)(CNS(=O)(=O)c1ccc(F)cc1)CNS(=O)(=O)c1ccc(F)cc1	-14	-2%	5.4%	3%
CCN(CC)S(=O)(=O)c1ccc(C)c(NC(=O)Cn2cnc3cc([N+](=O)[O-])ccc3c2=O)c1	-8	-11%	-5.9%	2%
Cc1cc(C(C)(C)C)cc(S(=O)(=O)Nc2ccc(C(=O)O)cc2)c1C	-5	-5%	-6.4%	4%
COc1ccc(OC)c(Nc2nc(-c3sc(NC(=O)CC(C)C)nc3C)cs2)c1	3	-16%	?	-2%
O=C1NN(c2ccc(Cl)c(Cl)c2)C(=O)/C1=C/c1cccc(OC(=O)c2cccs2)c1	1	0%	nt	nt
CCOC(=O)c1c(C)[nH]c(C(=O)OCCOc2ccc(Cl)cc2)c1C	-11	-3%	-0.8%	1%
CC(C)(C)S(=O)(=O)c1ccc2nc3c(n2c1)CCCC3	3	-7%	-5.8%	3%
COC(=O)[C@]1(C)N[C@H](CN(C)C(=O)Nc2ccc(OC)cc2)[C@@H]2C(=O)N(Cc3ccccc3)C(=O)[C@@H]21	nt	nt	-0.9%	6%
CC(C)n1c(=O)c2c(O)cc(=O)oc2c2ccccc21	5	-1%	-2.4%	-15%
Cc1nc(-c2ccc(S(=O)(=O)N3CCN(Cc4ccccc4)CC3)s2)cs1	0	6%	-3.5%	2%
COC(=O)CSc1nc(C)c(C(=O)Nc2ccccc2C)c(-c2ccc(Cl)cc2)c1C#N	2	-3%	?	-24%
Cc1ccc(NC(=S)N(CCN2CCOCC2)Cc2cc3cc4c(cc3[nH]c2=O)OCCO4)cc1	0	-8%	-2.7%	-12%
CCOc1ccccc1C(=O)Nc1ccc(-n2nncc2C(C)(C)C)cc1	9	-2%	-1.2%	-4%
CC(C)c1ccccc1NC(=O)COC(=O)CCN1C(=O)/C(=C\C=C\c2ccccc2)SC1=S	-1	27%	19%	21%
O=C(C[C@H]1C[C@H](C(=O)N2CCCCC2)[C@@]2(CCc3ccccc3)c3[nH]c4cc(-c5ccco5)ccc4c3CCN2C1=O)NCCN1CCOCC1	nt	nt	?	-18%
CN1CCN(S(=O)(=O)c2cccc([N+](=O)[O-])c2)CC1	nt	nt	-1.5%	-4%
COc1ccccc1-c1n[nH]c2c1[C@H](C)CC[C@H]2C(C)C	3	7%	1.9%	-17%
COc1cc2c(cc1OC)C(c1ccccc1O)NCC2 (stereo not drawn)	nt	-4%	4.5%	5%
N#Cc1nc(COc2ccc(Cl)cc2)oc1N1CCN(Cc2ccccc2)CC1	-2	2%	-1.1%	-8%
Cc1ccccc1/C=C/c1nc2ccccc2c(=O)n1CCc1ccccc1	3	-1%	0.5%	-10%
COCCNC(=O)C1(C(F)(F)F)CC(CCCO)CCCO1 (stereo not drawn)	nt	nt	2.5%	0%
CCNC(=O)CC1SC(=Nc2cccc(Cl)c2C)N(C)C1=O (stereo not drawn)	-6	-6%	-0.1%	-12%
CCOC(=O)C1(CC2CC2)CCN(C(=O)c2cc(C3CC3)nc3ccccc23)CC1	-13	-13%	2.4%	-9%
Cc1cccc(C)c1NC(=O)CSc1nnc(Cc2ccccc2)o1	-2	-6%	-0.2%	0%
CCOC(=O)C1=NOC(Cn2cc(C#N)c(=O)n(C)c2=O)C1 (stereo not drawn)	-9	2%	1.6%	14%
O=C(c1ccc2c(c1)OCO2)[C@@H]1[C@@H]2C(=O)N(C3CCCCC3)C(=O)[C@@H]2C2c3ccccc3C=CN21 (stereo partly drawn)	-1	-7%	-1.6%	-6%
CCC(CC)c1nnc(NC(=O)CCc2ccc(OC)cc2)s1	nt	-5%	0.8%	-1%

(next part)
SMILES	GLA inh pH 4.5	miR-21 reporter	Rango complex inh	Rango release inh
Cc1c(C(=O)N2CCN(S(=O)(=O)c3ccccc3)CC2)oc2ccc(Br)cc12	nt	nt	-1.0%	14%
O=c1[nH]c(COc2ccc(Cl)cc2Cl)nc2ccccc12	nt	-55%	3.7%	0%
CC(OC(=O)c1ccncc1)C(=O)NC1CCCC1 (stereo not drawn)	2	9%	-1.6%	20%
O=S(=O)(Nc1ccc(-n2cccc2)cc1)c1ccc(F)cc1	5	-2%	-3.2%	1%
Cc1ccc(CNC(=O)CCn2cc(-c3ccc(C)cc3)nc2CCN)cc1	nt	nt	-0.5%	21%
N#Cc1c2n(c3c(=O)n(Cc4ccccc4Cl)cnc13)CCCCC2	-5	-8%	0.1%	-17%
NS(=O)(=O)c1ccc(NC(=O)c2ccccc2Cl)cc1	5	-5%	-2.5%	?
CCCN1CCC(NC(=S)Nc2ccc([N+](=O)[O-])cc2)CC1	-4	-14%	?	-12%
CSCCC(NC(=O)c1ccccc1Br)C(=O)NNC(=O)c1ccco1 (stereo not drawn)	nt	nt	1.7%	-1%
Cc1ccc(NC(=O)Cn2cccc2)cc1	-2	-6%	0.0%	7%
O=C(NCc1ccc(OC(F)(F)F)cc1)C1CC(c2ccc(C(F)(F)F)cc2)=NO1 (stereo not drawn)	nt	nt	-2.7%	9%
Cc1ccc(S(=O)(=O)N2CCOCC2)cc1NC(=O)COC(=O)/C=C/c1ccc(F)cc1	nt	nt	-0.1%	-5%
Cc1ccc(C2=NN(C(=O)c3ccco3)C(O)(C(F)(F)F)C2)cc1 (stereo not drawn)	-10	-16%	?	2%
COCCC(=O)N1CCCC(C(=O)c2ccc(Oc3ccccc3)cc2)C1 (stereo not drawn)	1	9%	?	6%
COc1cccc(NC(=O)CSc2nc3ccccc3n2C)c1	-6	-7%&-12%	4.9%	19%
O/N=C\c1cnc(N2CCN(c3ccccc3)CC2)s1	nt	-54%	1.1%	-3%
CN1C(=O)C2C(c3ccc(N(C)C)cc3)NN(Cc3ccccc3)C2C1=O (stereo not drawn)	5	-2%	-0.7%	-4%
CCOC(=O)COc1ccc(S(=O)(=O)Nc2ccc3c(c2)OCCO3)cc1	-1	-7%	-5.3%	1%
COc1ccc(-c2nnc3c4ccccc4c(C)nn23)cc1S(=O)(=O)N1CCN(CCO)CC1	-6	-31%	-0.4%	-24%
CC(C)(C)NC(=O)COc1ccc2oc3c(c2c1)CCCC3	nt	-15%	?	-12%

A few values from the entries so far:
Rango complex inh with `CC1CCN(c2nc3ccc(C(=O)N4CCN(Cc5ccc6c(c5)OCO6)CC4)cc3s2)CC1` = -3.8%
miR-21 reporter with `Cc1cc(C(C)(C)C)cc(S(=O)(=O)Nc2ccc(C(=O)O)cc2)c1C` = -5%
Rango release inh with `O=C(NCc1ccc(Cl)cc1)c1ccncc1` = 15%

New compounds follow.
SMILES	GLA inh pH 4.5	miR-21 reporter	Rango complex inh	Rango release inh
Cc1c(NS(=O)(=O)c2ccc(C(=O)NCc3ccccc3)cc2)c(=O)n(-c2ccccc2)n1C	2	0%	-0.8%	-1%
O=C(CN1CCN(c2ccccc2)CC1)Nc1ccc2c(c1)CCC2	-4	-3%	-1.8%	-3%
CCN(C(=O)c1cc2c(C)nc3ccccc3c2o1)c1cc(Cl)ccc1OC	-13	23%	1.5%	11%
COC(=O)c1ccccc1NC(=O)c1cc(-c2cccs2)on1	3	-6%	-1.9%	1%
CC(C)[C@H](NC(=O)C1CC(=O)N(c2ccc3c(c2)OCO3)C1)C(=O)NC1CCCC1 (stereo partly drawn)	nt	-2%	-2.0%	-5%
O=C(CSc1ccc2nnc(-c3cccc(F)c3)n2n1)NCc1ccco1	1	0%	-0.2%	0%
COc1cc(/C=C/C(=O)c2c(O)cc(C)oc2=O)cc(OC)c1O	-1	-16%	?	?
COCCCNCc1cc(C)n(-c2cc(S(=O)(=O)N3CCOCC3)ccc2N2CCCC2)c1C	nt	nt	1.8%	-7%
